Assay outcomes (PubChem)
TRPML1 inh – inhibitors of human TRPML1 channel; Q9GZU1; TRPML1-inducible cells, Ca2+ dye fluorescence, FDSS; hits give low values; inhibition of EC80 agonist-evoked calcium signal; activity change, negative = inhibition, % (no concentration beside the values); hit rate 0.02% among 390,000; in the data active means activity change below about -50%; inconclusive means about -30% to -50%; inactive means above about -30%;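 also: stimulus is agonist 54-4 at its EC80 concentration; % is scaled to controls: 0 for no effect and ±100 for the full control effect; compound concentration not given in the record; the text of the record puts the active cut at -80%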
Target sequence (Q9GZU1 whole entry, looked up): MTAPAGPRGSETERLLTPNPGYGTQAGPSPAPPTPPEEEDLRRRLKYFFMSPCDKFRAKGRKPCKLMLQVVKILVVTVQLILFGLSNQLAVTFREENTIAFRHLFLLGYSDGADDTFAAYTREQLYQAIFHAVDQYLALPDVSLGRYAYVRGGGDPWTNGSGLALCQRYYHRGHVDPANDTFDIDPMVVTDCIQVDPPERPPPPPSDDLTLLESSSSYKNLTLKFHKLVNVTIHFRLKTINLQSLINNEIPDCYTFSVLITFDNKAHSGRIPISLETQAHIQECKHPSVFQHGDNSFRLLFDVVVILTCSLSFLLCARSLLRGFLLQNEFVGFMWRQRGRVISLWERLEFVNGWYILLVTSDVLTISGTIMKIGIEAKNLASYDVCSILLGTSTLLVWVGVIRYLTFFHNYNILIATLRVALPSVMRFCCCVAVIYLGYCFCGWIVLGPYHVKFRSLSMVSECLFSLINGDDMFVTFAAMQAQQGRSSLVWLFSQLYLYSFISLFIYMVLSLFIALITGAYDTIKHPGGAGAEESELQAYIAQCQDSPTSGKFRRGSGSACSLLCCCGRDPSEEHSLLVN
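Tet-induced TRPML1-DL cells loaded with Ca8 no-wash calcium dye were read kinetically on FDSS. Compound addition was followed by EC80 agonist 54-4 (4 uM final); inhibition was read over 110 s.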
Menin-MLL FL inh – displaces fluorescein MLL peptide from human menin | Fluorescence polarization, fluorescein-MLL peptide displacement from menin | FP activity change, % at 61.4 µM | 290,000 tested, under 10 active | AID 1766; inconclusive = falling polarisation curve, or a change in total fluorescence; inactive = total fluorescence flat and polarisation flat or rising; no compound was filed as active; the % refers to the polarisation; negative = inhibition;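 also: % of control where 0% means no effect; inhibitors lower the polarisation; unlabelled MLL peptide was the positive control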
PINK1 expr mod – changes PINK1 expression. PINK1 immunofluorescence, high-content cytometry, 24 h. AID 624263. hit rate 0.2% among 410,000. Potency, µM (top dose mostly 76.6 µM), without a hit: top-dose activation (PINK1 increase), actives largely listed as activators; active = well fitted activation curve with a large enough effect; inconclusive = small, poorly fitted or top-dose-only effect; inactive = flat fitted curve, though single readings scatter; cell line not stated here;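 also: potency is read from the fitted curve at half-maximal effect; % of control where 0% means no effect; nearly all actives have a fitted effect of over 65% in size; a mitochondrial uncoupler was the plate control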
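Fluorescence from anti-PINK1 antibody, together with nuclear and cell stains, was scanned on a laser-scanning cytometer. Before staining, stable-line cells were incubated 24 hours with compounds at 5 concentrations; primary antibody 12 h at 10 degrees C.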
TRPV1 PAM – human TRPV1 potentiation; TRPV1-expressing cells, Fluo-8 calcium influx, capsaicin EC20 potentiation; host cell line not named in the record; control for the full effect not named in the record; Q8NER1; potentiation, % at 8.33 µM; hit rate 0.02% among 320,000; active means potentiation above 80%; inconclusive means 30% to 80%; inactive means below 30%; also: 0% is about no effect
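Cells expressing TRPV1 were dye-loaded with Fluo-8 and read kinetically: 10 s baseline, 3 min after compound (agonist portion), then 2 min after EC20 capsaicin (allosteric enhancer portion). Calcium-bound dye fluorescence at 480/520 nm.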
ClpP mod – qHTS Assay for Activators of ClpP | ATP-dependent Clp protease proteolytic subunit (Bacillus subtilis (strain 168)), P80244 | purified B. subtilis ClpP, FRET peptide cleavage, 20 min | Potency, µM (series often up to 57.5 µM), inactives show at the highest dose activity change, negative = active | hit rate 1.9% among 340,000 | AID 651965, 2013; active = well fitted falling curve with a large enough effect; inconclusive = small, poorly fitted or top-dose-only effect; inactive = no such curve, though single readings can be large or run the other way; also: potency is read from the fitted curve at half-maximal effect; the source files actives as falling curves though it sought activators and does not explain the sign; nearly all actives have a fitted effect of over 65% in size; many hits overshoot -100%
Target sequence (P80244 whole entry, looked up): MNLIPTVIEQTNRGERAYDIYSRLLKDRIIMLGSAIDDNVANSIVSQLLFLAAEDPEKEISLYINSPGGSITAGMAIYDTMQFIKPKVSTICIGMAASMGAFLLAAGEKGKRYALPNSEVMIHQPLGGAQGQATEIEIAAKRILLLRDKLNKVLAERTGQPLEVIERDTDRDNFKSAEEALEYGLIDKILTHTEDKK
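Purified B. subtilis ClpP, 10 microg/mL final in Tris/HCl pH8 with KCl, BSA, glycerol and Tween-20, cleaved an Abz/nitrotyrosine-quenched decapeptide. Fluorescence (ex 320, em 430) was read at 0 and 20 min at room temperature. Delta was normalized to 5.8 microM ADEP and DMSO/no-enzyme controls.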
TRPML1 ag – human mucolipin-1 channel agonism. Q9GZU1. TRPML1-expressing cells, Ca2+ dye fluorescence, FDSS; host cell line not named in the record; reference of the full effect not given here. activation, % (no concentration beside the values). hit rate 0.12% among 410,000; in the data active = activation above about 50%; inconclusive = about 30% to 50%; inactive = below about 30%; also: 0% is about no effect; the text of the record puts the active cut at 80%
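Agonist activity was taken from a 110 s kinetic Ca2+ dye read on the FDSS after pinning compounds onto TRPML1-DL cells. The cells were seeded at 1,500/well with Tet inducer, incubated about 16 h, then dye-loaded at room temperature.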
Sfp inh – blocks B. subtilis Sfp PPTase activity. Q9F4F7. Biochemical Sfp PPTase activity, qHTS. Potency, µM, without a hit: max response, negative = inhibition, usual class: inhibitors. hit rate 3.5% among 310,000; active = well fitted inhibition curve with a large enough effect; inconclusive = small, poorly fitted or top-dose-only effect, or another doubt; inactive = no such curve, though single readings can be large or run the other way;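 also: the enzyme is Sfp with the accession as filed and its product quenches rhodamine fluorescence; potency is read from the fitted curve at half-maximal effect; 0% = enzyme reaction without inhibitor and -100% = no enzyme wells; top concentration of the series not given in the record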
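Sfp 15 nM + cpd, 15 min RT; start w/ rhodamine-CoA 5 uM, BHQ-2-YbbR 12.5 uM (final); 50 mM Hepes pH 7.6, 10 mM MgCl2, 0.01% NP-40, 0.01% BSA; read 525/598 nm at 0 and 30 min.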
* hit, by the source's call; ? = inconclusive; . = not tested or not shown; [ ] = another dose, or the depositor's remark.

Every second line gives: TRPML1 inh	Menin-MLL FL inh	PINK1 expr mod	TRPV1 PAM	ClpP mod	TRPML1 ag	Sfp inh
#1 O=C(COc1ccc2c(-c3ccccc3)cc(=O)oc2c1)NCc1ccccn1
    .	-0.9	-0.5%	7	-4.0%	.	-15%
#2 COc1ccccc1CNS(=O)(=O)c1cc(Br)cc2c1N(C(C)=O)C(C)C2 (configuration not stated)
    -19	.	0.4%	.	-0.7%	-0.7	.
#3 CN1C(CC(=O)Nc2ccc(Br)cc2)c2ccccc2CC1(C)C (configuration not stated)
    14	-0.1	8.7%	-21	.	1.1	?
#4 COCCCC1CCN(Cc2nc(-c3ccccc3)no2)CC1
    36	-1.1	6.1%	4	.	1.2	5%
#5 Cc1cccc(NC(=O)c2ccc([N+](=O)[O-])s2)n1
    -18	1.4	?	-9	-2.0%	-0.4	6%
#6 Cc1ccc(-c2nnn(CC(=O)N(CC3CCCO3)C(C(=O)NC3CCCCC3)c3ccc(F)cc3)n2)o1 (configuration not stated)
    -2	3.1	7.5%[38.3 µM]	-8	-1.4%	0.5	17%
#7 Nc1nccc(SCc2ccc(Cl)cc2Cl)n1
    13	.	4.9%	.	-2.3%	2.8	.
#8 COc1cccc(S(=O)(=O)NCc2ccc(C(=O)NCc3ccccn3)cc2)c1
    10	.	-0.1%	3	-0.6%	0.0	13%
#9 Cc1cc(C(=O)NN=Cc2c(C)[nH]c3ccccc23)c(C)o1
    11	.	5.1%	.	0.9%	2.0	.
#10 CC(C)c1ccc(OCC(=O)NNC(=S)NC(=O)c2ccco2)c(Br)c1
    14	1.2	0.0%	3	1.4%	0.3	6%
#11 COc1cc(C(=O)N2CC(=O)Nc3ccc(C)cc3C2c2ccc(F)cc2)cc(OC)c1OC (configuration not stated)
    -17	.	-2.4%	.	-0.9%	1.7	.
#12 Cc1cc(C)c2c(n1)SCCN2C(=O)Nc1ccc(C(=O)Nc2ccc(C(C)C)cc2)cc1
    26	.	-0.1%	.	-26%	1.5	.
#13 Cc1cccc(CSC2=NCCN2C(=O)c2ccc(S(=O)(=O)N(C)C)cc2)c1
    -2	-5.7	0.8%	-10	-0.6%	0.1	4%
#14 CN1CCN(Cc2cc(COCc3ccccc3)c3cccnc3c2O)CC1
    -5	4.1	-1.0%	29	-0.8%	1.0	-1%
#15 O=C(C1CCN(S(=O)(=O)N2CCC3(CC2)OCCO3)CC1)N1CCOCC1
    -15	-2.5	2.8%[38.3 µM]	-1	0.2%	-0.7	22%
#16 CC(=O)Nc1ccc(SCC(=O)Nc2ccccc2Oc2ccccc2)cc1
    19	1.2	-0.8%	-17	-2.6%	1.5	-4%
#17 Cc1ccccc1-c1ccnc2c(-c3ccc(F)cc3)c(C)nn12
    -8	.	4.8%	.	-3.7%	2.2	.
#18 CN(C)/C=N/c1nc(-c2ccc3ccccc3c2)cs1
    3	4.1	1.7%	5	-1.1%	1.3	-11%
#19 Cc1ccc(C(=O)COc2ccccc2-c2ccccc2)cc1
    28	0.1	2.6%	-3	0.8%	6.8	7%
#20 CC(C)(C)n1nnnc1C(c1cccc(C#N)c1)N1CCCc2ccccc21 (configuration not stated)
    14	-1.1	0.8%[38.3 µM]	-15	0.4%	0.6	-5%
#21 COc1ccccc1C1=NOC(Cn2c(NCCCO)nc3c2c(=O)n(C)c(=O)n3C)C1 (configuration not stated)
    1	2.0	-2.6%	10	-3.2%	-0.5	12%
#22 COc1ccc(NC(=O)COC(=O)CCNC(=O)c2ccco2)cc1Cl
    10	.	1.0%	.	-0.6%	3.8	.
#23 O=C(CCN1C(=O)/C(=C/c2ccccc2F)SC1=S)NCCCN1CCOCC1
    12	-1.0	0.0%	1	0.0%	-1.3	3%
#24 Cc1nn(-c2cccc(Cl)c2)nc1C(=O)O
    0	-2.5	3.0%	-3	.	-1.1	21%
#25 C=CCSC1=N/C(=C\c2ccc(C)o2)C(=O)S1
    33	?	1.7%	9	-0.4%	1.8	?
#26 O=C(NCCc1ccccc1)C(=O)NCC1OCCN1S(=O)(=O)c1cccs1 (configuration not stated)
    24	.	2.0%	8	-1.9%	1.3	15%
#27 Cn1c(=O)[nH]c(=O)c2c1nc(NCCO)n2CCOc1ccccc1
    -2	1.2	-1.2%	?	0.0%	1.2	20%
#28 O=C(NCCSc1ncc(-c2ccc(F)cc2)[nH]1)c1ccc2c(c1)OCO2
    -19	.	-0.6%	-17	1.4%	1.0	.
#29 N#CCC(=O)Nc1ccc(C(=O)OCC(=O)NC2CCCc3ccccc32)cc1 (configuration not stated)
    0	.	0.7%	.	-1.6%	1.5	.
#30 COc1ccc2ccccc2c1CNc1nnnn1C
    46	0.4	2.5%	2	-2.0%	-0.3	7%
#31 O=C1COc2ccc(C(=O)CSc3nnc(Cc4ccccc4)o3)cc2N1
    37	.	1.0%	-13	-3.4%	-0.4	.
#32 COc1cc(Sc2ccc(C)cc2)c(OC)cc1N
    9	-0.7	4.2%[38.3 µM]	-1	0.9%	-0.3	-23%
#33 O=C1CN(C(=O)COC(=O)c2ccc([N+](=O)[O-])s2)c2ccccc2N1
    -5	.	2.9%	.	?	0.2	.
#34 CCOc1ccc(N2CC(C(=O)NCc3ccc(F)cc3)CC2=O)cc1 (configuration not stated)
    -5	-1.2	-3.5%[38.3 µM]	-18	-0.6%	0.0	10%
#35 COc1ccc(C(=O)c2cn[nH]c2-c2ccc(C)cc2O)cc1
    43	-3.2	0.7%	4	.	1.0	13%
#36 COc1ccc2c(c1)Cc1sc(NC(=O)c3ccccc3C)nc1-2
    30	.	5.7%	.	8.8%	2.8	.
#37 CC(NC(=O)C1CCC1)c1ccc2c(c1)OCO2 (configuration not stated)
    0	1.0	-4.9%[38.3 µM]	4	0.8%	-0.4	12%
#38 COC(=O)c1ccc(N)c(CS(=O)(=O)c2ccc(Cl)cc2)c1
    11	-1.5	2.1%	-13	0.4%	3.7	12%
#39 CN(C)C1(CNCC(O)c2ccccc2)CCCCC1 (configuration not stated)
    -14	0.1	-1.5%	-2	0.8%	0.7	4%
#40 Cc1ccc(O)c(-c2cc(C(=O)Nc3ccc(S(=O)(=O)N4CC(C)OC(C)C4)cc3)[nH]n2)c1 (configuration not stated)
    -1	1.9	?	-9	-0.1%	-0.8	10%
#41 Cc1ccc(C(=O)Nc2cccc(C(F)(F)F)c2)cc1NC(=O)c1[nH]cnc1C(N)=O
    -10	.	-0.3%	.	-15%	-0.8	.
#42 O=S(=O)(c1cccc2ccccc12)N1CCC2CC1c1cc(-c3ccc4c(c3)OCO4)ccc12 (configuration not stated)
    .	.	3.0%	.	-9.7%	-0.6	.
#43 CN1CCN(NC(=O)c2ccc(Cl)cc2Cl)CC1
    -4	1.5	9.1%	2	-2.6%	0.9	6%
#44 CCOC(=O)c1[nH]c2ccc(OC)cc2c1NC(=O)c1nonc1C
    25	6.4	14%	-18	-4.0%	1.1	13%
#45 Cc1nnc(SCC(=O)N(C)C2CCS(=O)(=O)C2)n1Cc1ccccc1 (configuration not stated)
    30	0.9	-0.5%	-7	0.3%	0.2	25%
#46 CC(C)=CCC/C(C)=C/C(=O)O
    -6	0.1	0.1%	-7	1.0%	-0.5	-1%
#47 Cc1c(N/C(=N/S(=O)(=O)c2ccc(F)cc2)c2ccccc2)c(=O)n(-c2ccccc2)n1C
    41	0.3	-0.5%	4	1.9%	1.1	4%
#48 CC(CC(=O)NCC1CCCO1)c1ccccc1 (configuration not stated)
    5	0.8	1.0%	-33	-0.3%	1.9	8%
#49 COc1ccc(NC(=O)Nc2ncn(Cc3cccc(C(F)(F)F)c3)n2)cc1OC
    8	-2.5	.	8	0.2%	0.4	4%
#50 CNC(=O)c1ccsc1NC(=O)C1CCN(S(=O)(=O)c2cccs2)CC1
    12	.	4.1%	-14	.	0.4	.
#51 CN1CCN(C2CN(Cc3cn(Cc4cccc(C(F)(F)F)c4)nn3)S(=O)(=O)C2)CC1 (configuration not stated)
    .	.	0.2%	.	0.2%	-0.7	.
#52 COc1ccc(CCNC(=O)C2CC(=O)N(c3ccc(C)cc3)C2)cc1OC (configuration not stated)
    -15	3.3	4.3%	8	.	2.4	10%
#53 CCOC(=O)C(C)Oc1ncnc2cccc(F)c12 (configuration not stated)
    18	-0.3	1.1%	1	.	-0.1	8%
#54 CN(Cc1ccncc1)C(=O)[C@@H]1CCCN1C(=O)[C@@H]1CCCN1
    .	.	-0.9%	.	-1.7%	-0.3	.
#55 Cc1ccc(CNC(=O)Nc2ccc(Cl)cc2)cc1
    -12	.	0.6%	-17	-0.3%	-0.6	0%
#56 CCCC(C(=O)NCc1ccco1)N(CC1CCCO1)C(=O)CNS(=O)(=O)c1ccc(F)cc1 (configuration not stated)
    17	-8.5	-2.4%	5	.	-0.6	12%
#57 Cc1ccccc1COC(=O)CNC(=O)c1sc2ccccc2c1Cl
    9	.	3.2%	12	-6.8%	0.4	.
#58 CNc1nc(-c2ccccc2CN(C)C)nc2ccccc12
    .	-0.2	1.1%	.	.	.	8%
#59 COc1ccc(CN(Cc2cccnc2)C(=S)NCCc2ccccc2)cc1OC
    7	2.1	.	9	-0.4%	-0.4	0%
#60 CCCNC(=S)N1CCN(CC)CC1
    2	3.3	1.4%	-4	-1.8%	-0.1	-25%
#61 Cc1ccc(S(=O)(=O)N2C[C@H]3C(=O)C[C@@H](c4ccccc4)N(S(=O)(=O)c4ccc(C)cc4)[C@H]3C[C@H]2c2ccccc2Cl)cc1
    -3	.	0.9%	.	0.3%	-0.1	.
#62 COc1ccc(C(C(=O)NC(C)(C)C)N(Cc2ccc(F)cc2)C(=O)CCC(=O)Nc2cc(C)on2)cc1 (configuration not stated)
    1	6.0	6.3%	-4	.	1.1	3%
#63 O=C(Cn1nnc(-c2ccc(F)cc2)n1)Nc1cccc(S(=O)(=O)N2CCCC2)c1
    7	.	1.3%	?	0.8%	0.7	.

Looked up by compound from the list above, two records:
Every second line gives: TRPML1 inh	Menin-MLL FL inh	PINK1 expr mod	TRPV1 PAM	ClpP mod	TRPML1 ag	Sfp inh
#53 CCOC(=O)C(C)Oc1ncnc2cccc(F)c12 (configuration not stated)
    18	-0.3	1.1%	1	.	-0.1	8%
#46 CC(C)=CCC/C(C)=C/C(=O)O
    -6	0.1	0.1%	-7	1.0%	-0.5	-1%
